# HNF4A DNA FP: change in binding of human HNF4A to DNA, primary screen, biochemical, fluorescence polarization, FITC-DNA | Hepatocyte nuclear factor 4-alpha (Homo sapiens), P41235 | 1 h | activity change, % at 10 µM | 360,000 tested, 0.3% active; in the data active means activity change above about 30%, passing the limit was not always enough;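 further: controls were the assay level and a saturating level of protein; the project sought stronger binding though the title names inhibitors; some compounds called inactive have numbers as strong as hits; positive values seem to mean higher polarization but the record does not say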
# Target sequence (P41235 whole entry, looked up): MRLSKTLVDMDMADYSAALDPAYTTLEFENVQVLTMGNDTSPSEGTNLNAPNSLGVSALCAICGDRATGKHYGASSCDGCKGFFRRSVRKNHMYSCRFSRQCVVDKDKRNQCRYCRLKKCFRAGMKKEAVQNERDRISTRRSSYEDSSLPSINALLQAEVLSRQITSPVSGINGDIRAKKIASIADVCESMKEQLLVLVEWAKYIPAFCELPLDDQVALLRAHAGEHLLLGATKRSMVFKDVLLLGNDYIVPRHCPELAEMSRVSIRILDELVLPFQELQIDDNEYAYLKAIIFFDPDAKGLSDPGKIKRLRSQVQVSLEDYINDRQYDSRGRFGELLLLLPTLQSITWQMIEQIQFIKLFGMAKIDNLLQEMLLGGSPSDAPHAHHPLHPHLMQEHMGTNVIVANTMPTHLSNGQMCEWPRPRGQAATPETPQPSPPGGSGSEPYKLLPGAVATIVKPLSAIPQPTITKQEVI
# A1 inh: caspase 3/7 activation in MEF A1-2A-BIM cells, primary screen, A1 inhibitor project, cell-based, luminescence, HTS; Caspase-Glo 3/7 luminescence, 3 h; percent of clofoctol response, vehicle zero; caspase activation, % (concentration not given with the values); 330,000 tested, 0.066% active; AID 2462, 2010;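 active means over half of replicate activation scores above 10%, or exactly half above 10 with the replicate mean above 10; inconclusive means replicate mean below 10 yet half the replicates above 10; inactive means over half of replicates below 10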;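 further: wells of about 30 µL received 50 nL stock; many hits fall short of the cut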
# LANA-H2A inh: blockers of LANA interaction with H2A/H2B – biochemical, FP readout, HTS, primary screen | Protein LANA1 (Human herpesvirus 8 type P (isolate GK18)), Q9QR71 | cell-free LANA-H2A/H2B peptide, fluorescence polarization | inhibition, % (no concentration beside the values) | 320,000 tested, 0.6% active | AID 2629, 2010; in the data active means inhibition mostly above about 10%, no sharp cut-off; inactive means mostly below about 6.7%;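 further: stock transfer was 7.5 nL into about 10 µL; 0% = median of vehicle wells and 100% = median of positive control wells; one replicate is shown; the record names a cut of 25% in any replicate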
# E coli growth: E. coli growth inhibition, primary screen, OD600; Escherichia coli growth, 23 h; active compounds read low; OD600 absorbance (no concentration beside the values); 330,000 tested, 0.21% active; AID 1053175, 2014;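 active means OD600 absorbance below the run mean of sample wells minus 3.6 SD, in any replicate, cut at about 0.56 in these data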;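 further: stock transfer was 300 nL into about 60 µL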
# UCH37 DUB inh: inhibitors of human UCH37 deubiquitinase, primary screen, biochemical, Ub-AMC cleavage, fluorescence; purified proteasome/UCH37; inhibition, % (concentration not given with the values); 330,000 tested, 0.33% active; Ubiquitin carboxyl-terminal hydrolase isozyme L5 (Homo sapiens), Q9Y5K5;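 active means mean of two replicates above 20%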;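 further: 0% = compound-free wells with enzyme and 100% = wells lacking proteasome; stock transfer was 100 nL into about 20 µL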
#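 Material: human UCH37 enzyme supplied as purified proteasome complex. Measure: % inhibition of Ub-AMC cleavage fluorescence. Medium: pH 7.4 Tris-HCl (50 mM) with ovalbumin, ATP-MgCl2, DTT. Times: 30 min preincubation with enzyme, 25 min cleavage at room temperature. Detection: AMC fluorescence intensity at 355/460 nm.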
# B2AR ag: beta2AR agonists driving receptor internalization, primary screen, cell-based, FAP fluorogen, flow cytometry | response, % (test concentration not listed) | Am2.2-beta2AR cells; reference of the scale not given here | Beta-2 adrenergic receptor (Homo sapiens), P07550 | 340,000 tested, 0.43% active;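 active means response above a set limit, near 3 SD of response in nonfluorescent compounds, cut at about 42% in these data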;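 further: stock transfer was 100 nL into about 11 µL; a reference agonist was the positive control; negative values mostly stem from fluorescent compounds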
# Target sequence (P07550 whole entry, looked up): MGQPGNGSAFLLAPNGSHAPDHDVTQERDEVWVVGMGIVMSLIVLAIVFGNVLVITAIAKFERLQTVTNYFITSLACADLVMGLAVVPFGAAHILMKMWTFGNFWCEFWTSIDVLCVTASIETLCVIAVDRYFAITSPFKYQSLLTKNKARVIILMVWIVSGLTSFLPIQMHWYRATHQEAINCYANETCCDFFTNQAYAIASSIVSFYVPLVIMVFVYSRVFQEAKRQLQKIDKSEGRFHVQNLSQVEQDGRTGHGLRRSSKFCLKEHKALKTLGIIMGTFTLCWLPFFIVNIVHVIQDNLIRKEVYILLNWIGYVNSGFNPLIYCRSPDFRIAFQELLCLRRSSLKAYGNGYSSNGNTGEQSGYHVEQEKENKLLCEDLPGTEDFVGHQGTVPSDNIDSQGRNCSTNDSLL
# Vif TR-FRET: inhibitors of Vif binding to APOBEC3G peptide, primary screen, biochemical, TR-FRET, GST-Vif 1-94, biotin-A3G peptide, dose response retest (AID 1117319) | Virion infectivity factor (Human immunodeficiency virus type 1 group M subtype B (isolate … | TR-FRET GST-Vif / biotin-A3G peptide binding; higher % means a stronger effect; test concentration not given here; strong numbers were not always called active | 260,000 tested, 0.57% active | inhibition, %, or IC50 in µM where a hit was titrated;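 active means above the screen mean plus three standard deviations and confirmed in dose response; inconclusive means results disagree or hit not tested in dose response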;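 further: Vif residues 1-94 fused to GST binding biotinylated APOBEC3G peptide 110-148; 0% = full assay without inhibitor and 100% = GST in place of GST-Vif; retest series ran down from 100 µM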
# The depositor's hits bear a star; ? = inconclusive; nt = not tested or not shown.
# Below each SMILES – HNF4A DNA FP, A1 inh, LANA-H2A inh, E coli growth, UCH37 DUB inh, B2AR ag, Vif TR-FRET
CC1Cc2ccccc2N1C(=S)NC(=O)c1ccco1 (stereo not drawn)
  4.6, 0.4, -1.7, 0.7, 7.4, -9, nt
CC(=O)c1ccc(N2CCN(C(=O)c3ccc(-c4ccccc4)cc3)CC2)cc1
  -4.4, 0.5, 0.2, 0.73, -2.3, -2, -3%
COc1ccc(Nc2nc(N)c3ccccc3n2)c(OC)c1
  2.5, -7.2, -2.4, 0.66, 1.2, -7, nt
NS(=O)(=O)c1ccc(CCNC(=O)CSc2cccs2)cc1
  0.4, 0.5, 2.2, 0.7, 3.2, 4, -2%
Fc1ccc2cc(CCO[C@H]3CCCCO3)ncc2c1
  -2.3, -0.1, -2.3, nt, 2.6, -5, nt
CC(=O)Nc1cc(-c2ccccc2)ccc1O
  3.0, -0.2, 2.6, 0.66, 1.8, -4, 1%
CCOc1ccc(N2CC(C(=O)Nc3ccccc3F)CC2=O)cc1 (stereo not drawn)
  -2.3, 0.4, 4.0, 0.72, 0.4, -6, -1%
Cc1ccc(C)c(NC2=NCC(=O)N2C2CCCCC2)c1
  4.0, 0.7, -2.5, 0.69, 0.1, 3, nt
COc1ccc(C(=O)NC(=S)N2CCNC(=O)C2)cc1Br
  -2.2, -0.2, 2.7, 0.65, 0.9, -6, nt
COc1ccc(N2C(=O)C(CN3CCN(C)CC3)C2c2ccccc2)cc1 (stereo not drawn)
  -2.2, -0.2, -4.5, 0.7, -0.8, -3, -3%
Cc1ccc(NC(=O)c2ccc(NC(=O)c3ccccc3)cc2)cc1C
  -3.3, 0.7, 5.8, 0.71, -19, 0, -2%
Oc1ccc(-c2csc(Nc3cccnc3)n2)cc1
  -0.8, -1.1, 1.1, 0.63, 1.5, -4, 0%
N#Cc1c(C(F)(F)F)cc(C2CC2)nc1N1CCCC1
  1.6, 0.8, -7.6, 0.75, 1.8, -2, 2%
COc1ccc(CN(C(=O)CSc2nnc(-c3ccccc3F)o2)c2ccc(F)cc2)cc1
  0.4, -0.6, -8.8, 0.7, 5.5, 4, 11%
Cc1cc(C)n(C(=O)CN2C(=O)COc3ccccc32)n1
  -2.9, -0.9, 0.7, 0.7, 0.8, -5, 16%
Cc1cc(C)cc(CC2CC(=O)N(c3cc(C)ccc3C)C2=O)c1 (stereo not drawn)
  5.9, -2.0, -1.5, 0.65, 1.2, 13, nt
COc1ccc2[nH]cc(CCNC(=S)NC3CCCC3)c2c1
  -3.1, -0.4, 2.3, 0.7, 0.1, 0, 32%
COc1ccc2c(C)cc(SCC(=O)c3ccc4c(c3)OCO4)nc2c1
  1.4, -0.4, 4.7, 0.74, -1.9, -4, -77%
O=C(Nn1cnnc1)c1ccc(F)cc1
  0.3, -0.9, 0.5, 0.67, 0.4, -2, 0%
CCNC(=O)NCc1c(C)c(C)n(Cc2ccccc2)c1-n1cccc1
  -3.7, 0.0, -0.7, 0.71, 2.4, -8, nt
CC(C)C(=O)Nc1c2c(nn1-c1ccc(F)cc1)CS(=O)(=O)C2
  -0.9, 1.3, -1.1, 0.69, 3.4, -7, 2%
CN(C)S(=O)(=O)c1cccc(NC(=O)Cn2cnc3ccccc3c2=O)c1
  1.8, -1.4, -2.9, 0.73, 1.6, 5, 0%
CCN=C1S/C(=C\c2cc(Cl)c(OC)c(OC)c2)C(=O)N1CC
  4.1, -0.2, 1.3, 0.7, -24, -2, -8%
COc1cccc(C2/C(=C(/O)c3cnn(-c4ccccc4)c3C)C(=O)C(=O)N2CCN(C)C)c1 (stereo not drawn)
  0.1, -0.5, -0.9, 0.77, 6.9, 1, ?
Cc1ccc(C(OCC(O)CNC(C)c2ccccc2)c2ccccc2)cc1 (stereo not drawn)
  0.0, -0.2, -2.5, 0.66, 2.7, 17, -11%
O=[N+]([O-])c1ccc(N/N=C2\CC3CC=CC23)cc1 (stereo not drawn)
  7.6, 0.3, 1.1, nt, nt, 2, 22%
Nc1ccc(Cl)c(NC(=O)c2cccs2)c1
  -0.7, 1.0, 5.2, 0.72, -3.2, 3, 3%
COc1ccc(C(=O)N/C(=C\c2ccc3c(c2)OCO3)C(=O)N2CCOCC2)cc1
  -0.1, ?, 1.1, 0.67, 7.2, -3, nt
Brc1ccc(-c2nc(-c3cccnc3)no2)o1
  -2.6, -5.1, -2.5, 0.72, 1.5, -9, 0%
CC(C)(C)Nc1nc(Cl)nc(NC2CCCCC2)n1
  1.2, -0.2, 2.7, 0.65, -1.1, 4, nt
CCN(CC(=O)Nc1ccc(NC(C)=O)cc1)C(=O)c1ccc2c(c1)OCO2
  0.6, -0.6, 22*, 0.68, -2.8, 0, 7%
CCOC(=O)c1c(NC(=O)CC2SC(N)=NC2=O)sc2c1CCCC2 (stereo not drawn)
  -0.5, -0.6, 1.3, 0.63, 1.7, 2, 3%
COc1cc(OC)nc(/N=C/NO)n1
  -0.4, 0.9, -0.5, nt, nt, -3, nt
COc1cccc(CNc2cnc3ccccc3c2)c1O
  -2.7, -4.2, 0.0, 0.68, -123, -1, 21%
CCOc1ccc(NS(=O)(=O)c2ccc(C(=O)NNC(=O)c3ccccc3O)cc2)cc1
  1.9, 0.1, 0.2, 0.52*, 1.8, 1, 11%
O=C(CSc1nnnn1-c1ccccc1)NC(=O)NCc1ccco1
  -8.4, -1.2, 5.4, 0.74, 2.1, -2, 18%
COc1ccc(CCNC(=O)CSc2n[nH]c(N)n2)cc1
  -2.7, 0.8, 1.8, 0.7, 0.1, 2, nt
CN1CCN(c2ccc(NC(=O)c3ccccc3Br)cc2)CC1
  -2.5, -2.5, 3.1, 0.7, 2.2, 13, 4%
CC(C)C[C@H]1CN=C(Nc2ccccc2)N1CCc1ccc(F)cc1
  3.8, 1.2, 1.7, nt, 2.4, 2, nt
CC(C)(C)c1ccccc1OCCCCCn1ccnc1
  2.7, 2.7, -2.1, 0.64, 7.8, 8, 0%
CCCCN1C(=O)c2ccc(C(=O)NC3=NCCS3)cc2C1=O
  2.2, 0.1, -1.1, 0.72, 2.8, 1, ?
O=C1COc2ccc(C(=O)CSc3nnc(Cc4cccs4)n3-c3ccccc3)cc2N1
  -4.7, 0.3, 0.5, 0.66, 4.2, 2, -6%
CC1(C)c2[nH]c3ccccc3c2C[C@@H]2C(=O)N(Cc3ccccc3)C(=O)N21
  0.1, -0.6, -8.4, nt, 0.7, 4, nt
O=C1c2cccnc2-c2ncccc21
  -0.9, 0.0, 3.5, 0.71, 2.0, -3, -4%
Nc1nc(-c2ccc(Cl)cc2)cc(C(F)(F)F)n1
  1.0, -0.9, -1.9, 0.71, 2.3, -1, 3%
COc1ccc(/C=N/NC(=O)c2sccc2C)c2ccccc12
  0.7, -4.2, 1.0, nt, nt, 2, nt
O=C(N=NC(=O)c1ccc2c(O)n(C3CCCCC3)c(O)c2c1)c1cccnc1
  -1.2, 0.9, 1.1, 0.75, 4.0, 11, 2%
COc1ccc(C)cc1S(=O)(=O)N1CCCC(N2CCOCC2)C1 (stereo not drawn)
  1.2, 0.7, 1.7, 0.7, 2.8, -1, -5%
COc1ccc(C(=O)Nc2cc(S(=O)(=O)N3CCCCC3)ccc2OC)cc1
  -0.2, -0.8, 2.5, 0.7, -0.5, 2, nt
Cc1sc2ncnc(Nc3ccc(O)cc3)c2c1C
  0.8, 1.5, -9.1, 0.65, 3.2, 4, nt
COc1ccc(S(=O)(=O)Nc2ccc(-n3cnnn3)cc2)cc1[N+](=O)[O-]
  -5.2, 0.2, -0.2, 0.7, 2.1, 6, 1%
CC(C)(O)C#Cc1ccc(C(=O)N2CCCC(CCC(=O)NCc3ccccc3F)C2)cc1 (stereo not drawn)
  -2.0, -1.0, 2.4, 0.65, -1.1, 2, 6%
O=C(CCN1c2ccccc2Sc2ccccc21)OCc1nnc(-c2ccccc2)o1
  4.3, -0.1, -0.8, 0.75, 3.9, -2, 6%
COc1cc(CNC(=O)OCC(C)C)cc(OC)c1OC
  -1.1, -0.8, 0.6, 0.74, 0.9, 5, 1%
COc1ccc2nc(NC(=O)c3cccnc3SC)sc2c1
  1.8, -6.6, 3.8, 0.68, -13, 5, nt
COc1ccc(C2CC(c3ccc(OC)cc3)n3nc(NC(=O)c4cccs4)nc3N2)cc1 (stereo not drawn)
  0.6, 0.1, 4.2, 0.74, -10.0, -8, -5%
COc1cc(-c2nnc(SCC(=O)Nc3ccc(C(=O)O)cc3)o2)cc(OC)c1OC
  0.9, -0.7, -0.5, 0.68, -0.7, 5, -10%
Cc1cc(Nc2ccccc2)n(-c2ccc(C(=O)O)cc2)n1
  2.7, 0.7, -3.1, 0.7, 4.0, -4, -8%
CC1=NN(c2ccc(C(=O)O)cc2)C(=O)CC1
  0.5, 0.9, -5.5, 0.64, 3.1, 0, nt
O=C(CN1C(=O)C2CC=CCC2C1=O)Nc1ccc(Br)cc1 (stereo not drawn)
  -0.3, -0.2, -1.7, 0.72, 4.4, -5, nt

# (next part)
# Below each SMILES – HNF4A DNA FP, A1 inh, LANA-H2A inh, E coli growth, UCH37 DUB inh, B2AR ag, Vif TR-FRET
CC1(C)Cc2ccccc2C2=C(C(=O)N3CCCCCC3)C(=O)C(=O)N21
  3.4, 0.0, 0.3, 0.62, 12, -8, 6%
Cc1cccc2c(=O)cc(C)n(CC(=O)N3CCOCC3)c12
  2.6, -1.1, -2.2, 0.66, 3.9, -5, 4%
c1ccc(-n2ncc3c(NCc4ccco4)ncnc32)cc1
  0.8, -0.3, -1.6, 0.74, 5.0, -9, 0%
O=C(CCCCCNC(=S)Nc1ccccc1)C[N+](=O)[O-]
  1.9, -0.3, -3.4, 0.69, 2.6, -1, ?
C=C(C)[C@@H]1CC=C(CN2CCN(Cc3ccccc3)CC2)CC1
  5.1, 1.0, 3.5, 0.58, 1.5, -6, nt
NC(=O)c1nn(-c2ccccc2)c(=O)cc1O
  -0.5, 1.8, 6.9, 0.66, 3.9, 3, -1%
COc1ccc(OC)c(NC(=O)CC2SC(=Nc3ccc(F)cc3)N(CCC3=CCCCC3)C2=O)c1 (stereo not drawn)
  3.9, 0.1, -3.4, 0.69, 1.6, 9, 8%
O=C(Nc1nc(-c2ccncc2)cs1)c1ccco1
  -2.3, 0.0, -7.7, 0.72, 1.4, 4, 21%
CC1CCCCC1NS(=O)(=O)CCNC(=O)c1ccc2c(c1)OCO2 (stereo not drawn)
  7.4, 1.0, 2.0, 0.69, 0.0, -3, 1%
O=C(CSc1ccc2nnc(CCNC(=O)c3ccc(F)cc3)n2n1)NCC1CCCO1 (stereo not drawn)
  1.7, -0.2, 1.5, 0.72, -6.0, -2, -4%
CC1CCCN(C(=O)C2CCN(CCCc3ccccc3)CC2)C1 (stereo not drawn)
  nt, 0.0, -5.9, 0.69, 6.0, nt, 7%
COC(=O)[C@H](Cc1ccccc1)NC(=O)Cn1cnc(C(=O)Nc2ccc(C)c(C)c2)n1
  -1.1, nt, nt, 0.68, 0.0, 5, nt
CC(C)c1ccc(C(=O)CN2C(=O)NC3(CCc4ccccc43)C2=O)cc1 (stereo not drawn)
  3.8, 0.9, -3.9, 0.68, 0.8, 10, -3%
CCOP(=O)(c1ccc(N(C)C)cc1)C(O)c1ccccc1OC (stereo not drawn)
  -1.3, 0.2, 4.8, 0.72, 2.3, 0, 12%
O=C(O)Cn1c(=O)c(-c2ccccc2)nc2ccccc21
  -6.5, -0.2, -1.7, 0.69, -215, 4, -17%

# Compound activity (PubChem BioAssay)
